Mtb MbtI inh – MbtI salicylate synthase inhibitors, primary screen, biochemical, fluorescence intensity. P9WFX0. purified MbtI enzyme, fluorescence intensity read-out. inhibition, %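 (about 17 µg/mL by stock and volumes)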. 0.89% of 100,000 active;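 active = above 50% in both replicates, above 80% if mildly self-fluorescent; inactive = the rest, strongly fluorescent compounds included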;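 also: 0% = mean of negative and 100% = mean of positive controls; one replicate is shown; some compounds called inactive have numbers as strong as hits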
Target sequence (P9WFX0 whole entry, looked up): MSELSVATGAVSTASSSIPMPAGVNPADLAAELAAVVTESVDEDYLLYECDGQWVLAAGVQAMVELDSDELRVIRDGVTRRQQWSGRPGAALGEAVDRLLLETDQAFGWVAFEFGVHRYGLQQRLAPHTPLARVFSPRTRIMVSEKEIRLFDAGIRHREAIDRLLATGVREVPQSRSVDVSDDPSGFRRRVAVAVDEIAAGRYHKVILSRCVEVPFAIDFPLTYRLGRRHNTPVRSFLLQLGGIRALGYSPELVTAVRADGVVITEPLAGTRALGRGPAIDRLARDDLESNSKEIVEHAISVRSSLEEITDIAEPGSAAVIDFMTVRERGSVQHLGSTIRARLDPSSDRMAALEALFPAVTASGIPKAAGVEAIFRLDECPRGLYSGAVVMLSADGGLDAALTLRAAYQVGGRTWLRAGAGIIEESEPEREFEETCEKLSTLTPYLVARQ
MenB inh – M. tuberculosis MenB inhibitors, primary screen, biochemical, absorbance; AID 540299, 2011; MenB enzyme assay, absorbance read-out; some hits fall short of the stated cut; inhibition, %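 (about 12 µg/mL by stock and volumes)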; 1,4-dihydroxy-2-naphthoyl-CoA synthase (Mycobacterium tuberculosis (strain ATCC 25618 / …; 0.43% of 100,000 active;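 active = mean of two replicates above 30%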;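 also: 0% = no compound and 100% = wells with inactive enzyme; the first replicate is given; strong numbers were not always called active; inactives centre near -10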
Target sequence (P9WNP5 whole entry, looked up): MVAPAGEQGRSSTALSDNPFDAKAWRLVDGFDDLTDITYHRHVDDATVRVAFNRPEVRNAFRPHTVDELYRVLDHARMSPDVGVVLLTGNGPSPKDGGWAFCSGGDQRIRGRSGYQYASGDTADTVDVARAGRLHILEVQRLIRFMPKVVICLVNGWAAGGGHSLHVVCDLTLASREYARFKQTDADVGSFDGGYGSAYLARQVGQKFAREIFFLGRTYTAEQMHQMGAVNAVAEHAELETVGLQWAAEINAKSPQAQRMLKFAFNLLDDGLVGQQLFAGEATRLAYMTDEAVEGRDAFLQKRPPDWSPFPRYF
PV pol inh – poliovirus RdRp elongation inhibitors, primary screen, biochemical, fluorescence polarization, total intensity. Genome polyprotein (Poliovirus type 1 (strain Mahoney)), P03300. poliovirus polymerase elongation; active compounds read low. % elongation, % (compound at 16.7 µg/mL). 0.66% of 150,000 active; in the data active = % elongation below about 90%; also: some results filed as inactive read as strong as hits
PV pol inh intensity – also measured in PV pol inh; calls as there; % elongation; measured here: total intensity read-out; formula for this scale not given here;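 total fluorescence in place of polarization; lower means less elongation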
An asterisk follows results filed as active; . = not tested or not shown; & = joins results of further samples.

SMILES	Mtb MbtI inh	MenB inh	PV pol inh	PV pol inh intensity
CC(NC(=O)Nc1ncccn1)(C(F)(F)F)C(F)(F)F	-8	-17	102	104
COc1ccc(-c2nnc(SCC#N)n2C2CCCCC2)cc1OC	-15	-6	104	114
COC(=O)c1cc2cccc3c2n1CCS3	86	-13	100	105
COc1ccccc1C(=O)N(C)CCc1ccccn1	-6	1	106	108
S=c1oc2ccc(Cl)cc2n1CN1CCCC1	19	-44	104	99
COc1ccc2c(CSc3nncn3-c3ccccc3OC)cc(=O)oc2c1	-6	-27	109	114
Cc1cc(C)n(C(=O)CSc2nc(C)c(C)cc2C#N)n1	.	4	105	111
CC12CN3CC(C)(CN(C1)C3c1ccc(O)cc1)C2 (configuration not stated)	-3	-18	105	99
COC(=O)CSc1nc(C)c(Br)c(=O)[nH]1	23	-11	97	94
Cc1ccc(-n2nc(C)c3c(=O)[nH]c(C(F)(F)F)nc32)cc1	-24	-5	97	101
COc1ccccc1NS(=O)(=O)c1ccc2oc(=S)n(CN(C)CCC#N)c2c1	5	-18	85*	83*
COc1ccc2c(C)c(CC(=O)N3CCOCC3)c(=O)oc2c1	106	17	103	102
FC(F)(F)c1ccccc1NCn1nnc2ccccc21	.	-28	102	95
COc1ccccc1NC(=O)Cn1c(=O)n2nc(C)nc2c2ccccc21	-14	-17	101	105
CC(Nc1ccc(Cl)cc1)C(=O)N/N=C/c1cccc(O)c1 (configuration not stated)	-1	-9	103	102
CCn1c(CN(C)C(C)=O)nc2ccccc21	-5	-54	102	102
CCN(CC)CCNc1ncnc2sc3c(c12)CCCC3	2	10	103	102
C=CCNc1nc(C)nc(OC)n1	2	-13	104	108
CCOC(=O)C1CCN(S(=O)(=O)c2ccc(-c3cc(C(F)(F)F)no3)s2)CC1	-1	-15	106	99
CN(C)/C=N/c1ncnc2c1cnn2-c1ccccc1	2	-3	100	100
CCCCCCCCCCCCCCCCOCC(CO)OC (configuration not stated)	-14	3	102&102	103&101
N#Cc1c(N)cc(N)nc1SCc1ccc(Cl)c(Cl)c1	-5	-17	101	104
O=C(Oc1ccc2c(c1)OCO2)N1CCOCC1	-19	-14	104	104
CC1CC(=O)c2cnc(N3CC(C)CC(C)C3)nc2C1 (configuration not stated)	5	-3	100	101
COC(=O)c1ccccc1-c1ccc(-c2nc3sc4c(c3c(=O)[nH]2)CCCC4)o1	50	4	103	103

An excerpt of these results, as a markdown table:
| mol | Mtb MbtI inh | MenB inh | PV pol inh | PV pol inh intensity |
| --- | --- | --- | --- | --- |
| COc1ccc2c(CSc3nncn3-c3ccccc3OC)cc(=O)oc2c1 | -6 | -27 | 109 | 114 |
| CC1CC(=O)c2cnc(N3CC(C)CC(C)C3)nc2C1 (configuration not stated) | 5 | -3 | 100 | 101 |

Next part
SMILES	Mtb MbtI inh	MenB inh	PV pol inh	PV pol inh intensity
C[n+]1c(/C=C/Nc2ccccc2)sc2ccccc21	.	-375	121	106
O=C(NCCc1ccc(Cl)cc1)c1cc2c(=O)[nH]c3ccccc3c2s1	-7	-4	91	109
COc1ccc(CCNC(=O)COc2cccc3c2CCN(Cc2cccnc2)C3=O)cc1OC	-17	-21	101	101
COc1ccc(C(CC(=O)NCc2cccnc2)N2Cc3ccccc3C2=O)cc1 (configuration not stated)	-7	0	100	101
CNc1ccc2cccc(Oc3ccc4cccc(O)c4n3)c2n1	40	-9	100	97
O=C(COc1ccc(OCc2ccccc2)cc1)NC1CCOC1=O (configuration not stated)	-9	-20	101	108
CC(C)(C)c1ccc(Cn2c(=N)n(CC(O)c3ccco3)c3ccccc32)cc1 (configuration not stated)	21	-22	102	101
O=C(Nc1ccc(C(=O)N2CCCc3ccccc32)cc1)c1ccco1	13	-11	97	102
Cc1c(C(=O)NCCN2CCOCC2)sc2nc(-c3ccc(F)cc3)cn12	1	-8	101	104
Cc1ccnc(NC(=O)CCC(=O)O)c1	7	0	101	96
O=C(/C=C/c1ccco1)Nc1ccc(N2CCOCC2)cc1	1	6	105	107
COc1ccc2c(c1)CCc1c(C(=O)N(C)c3ccccc3)noc1-2	11	-30	102	95
O=C(COc1ccc(Cl)cc1Cl)NC1CCS(=O)(=O)C1 (configuration not stated)	-6	-13	101	102
Cc1ccc(C)n1-c1sccc1C(=O)Oc1ccc2c(c1)OCO2	1	-3	109	111
Cc1c(C(=O)O)[nH]c2c1C(=O)CC(c1ccc(Cl)cc1)C2 (configuration not stated)	-1	6	100	100
Cc1ccccc1OCCC(=O)Nc1ccc(F)c(Cl)c1	3	.	103	91
CN(C)C(=Nc1ccccc1)P(=O)(c1ccccc1)N(C)C (configuration not stated)	-10	-26	99	98
COc1ccccc1NC(=O)CSc1nc2ccccc2cc1C#N	2	-61	101	100
Cc1coc2cc3oc(=O)cc(C)c3cc12	2	-11	102	101
CCCCN(C)c1ncnc2c1sc1nc3c(cc12)COC(C)(C)C3	-6	-18	102	106
Cn1nc(C(=O)NC2CCN(Cc3ccccc3)CC2)c2c1-c1ccccc1S(=O)(=O)C2	11	-1	101	101
O=C(CCc1nc2ccccc2s1)OCC(=O)c1ccco1	10	-7	115	132
Cc1ccc2[nH]c3c(c2c1)CCCC3C(N)=O (configuration not stated)	-5	12	100	103
COC(=O)c1ccc(NC(=O)CC(CC(=O)O)c2ccccc2)cc1 (configuration not stated)	1	7	100	104
COc1cc(C(=O)NN)ccc1-c1ccc(C(=O)NN)cc1	15	18	101	103

Next part:
SMILES	Mtb MbtI inh	MenB inh	PV pol inh	PV pol inh intensity
Cc1ccc2occ(CC(=O)Nc3ccc(S(=O)(=O)N4CC(C)OC(C)C4)cc3)c2c1 (configuration not stated)	3	-14	99	102
Nc1ccc2[nH]c3ccccc3c2c1	89	-47	93	151
Cc1nc(C(F)(F)F)nc(Sc2cccc(C(F)(F)F)c2)c1C	-6	-28	102	88
CCCCN1C(=O)c2ccc(C(=O)OCC(=O)N3CCN(c4ccccc4)CC3)cc2C1=O	-4	-2	102	106
COC1=CC23CCN(C)C(Cc4ccc(OC)c(O)c42)C3=CC1=O (configuration not stated)	-18	-4	102	102
CC(=O)Nc1ccc(NC(=O)CS(=O)(=O)Cc2ccccc2)cc1	-9	11	100	103
N#CCC(=O)Nc1cc(Cl)cc(Cl)c1	-12	.	103	109
CC1CCCCC1NC(=O)COc1ccc(C#N)cc1 (configuration not stated)	-7	.	103	108
N#Cc1cc2c(=O)n3ccccc3nc2n(CCN2CCOCC2)c1=O	14	-84	106	108
CCOc1ccc(-c2n[nH]c(=S)c3ccccc23)cc1	-44	-33	102	100
Cc1ccccc1Nc1nc(N)nc(COC(=O)C23CC4CC(CC(O)(C4)C2)C3)n1	-47	-6	105	113
CCOC(=O)c1cnc(SCC(=O)N2CCc3ccccc32)nc1N	7	6	103	100
O=C(NCCc1ccncc1)Nc1c[nH]c2ccccc2c1=O	89	-18	104	101
Cc1cccc(N(CC(N)=O)C2SC(=O)NC2=O)c1 (configuration not stated)	5	8	94	89
COc1ccc(NC(c2ccccn2)c2oc(CO)cc(=O)c2O)cc1 (configuration not stated)	1	-31	101	112
CCCCC(=O)N1c2ccccc2C(Nc2ccccc2)CC1C (configuration not stated)	.	0	100	108
CC(C)=NNS(=O)(=O)c1ccc(N2CCCC2=O)cc1	-11	12	101	99
CC(C)(C)c1ccccc1NC(=O)c1cccc(Cn2cc(Cl)cn2)c1	.	-13	100	103
CCCC(C)C(=O)Nc1ccc(S(N)(=O)=O)cc1 (configuration not stated)	.	-5	101	96
COc1ccc(C2C(=O)N(CCc3ccccc3)CC(=O)N2Cc2ccc3c(c2)OCO3)cc1 (configuration not stated)	21	2	99	94
COc1ccccc1CN(C)C(=O)c1cc(C)nc2ccccc12	0	2	91	94
Cc1cccn2c(N)c(-c3ccccc3)nc12	103	0	102	113
O=c1c2ccccc2nc(-c2ccc(F)cc2)n1NCc1ccccc1O	0	-1	100	101
Cn1c(=O)[nH]c(=O)c2[nH]c(NCCO)nc21	5	27	100	103
COc1ccccc1NC(=O)Nc1ccnn1C1CCCCC1	30	3	103	104

Part of the list above, in CSV form.
compound,Mtb MbtI inh,MenB inh,PV pol inh,PV pol inh intensity
CC(=O)Nc1ccc(NC(=O)CS(=O)(=O)Cc2ccccc2)cc1,-9,11,100,103
N#CCC(=O)Nc1cc(Cl)cc(Cl)c1,-12,.,103,109
CC1CCCCC1NC(=O)COc1ccc(C#N)cc1 (configuration not stated),-7,.,103,108
N#Cc1cc2c(=O)n3ccccc3nc2n(CCN2CCOCC2)c1=O,14,-84,106,108

Exported with bars between the fields: entries from further up.
canonical_smiles | Mtb MbtI inh | MenB inh | PV pol inh | PV pol inh intensity
COc1ccccc1NS(=O)(=O)c1ccc2oc(=S)n(CN(C)CCC#N)c2c1 | 5 | -18 | 85* | 83*
COc1ccc2c(C)c(CC(=O)N3CCOCC3)c(=O)oc2c1 | 106 | 17 | 103 | 102
FC(F)(F)c1ccccc1NCn1nnc2ccccc21 | . | -28 | 102 | 95
COc1ccccc1NC(=O)Cn1c(=O)n2nc(C)nc2c2ccccc21 | -14 | -17 | 101 | 105

The list goes on:
SMILES	Mtb MbtI inh	MenB inh	PV pol inh	PV pol inh intensity
C=CCc1ccc(OCCOCCN2CCN(C)CC2)c(OC)c1	-8	-11	94	102
O=C(CN1CCC2(CC1)OCCO2)Nc1ccccc1	3	-21	100	103
CCCn1c(N)c(NCCN2CCOCC2)c(=O)n(CC(=O)NCc2ccccc2)c1=O	-5	-15	108	110
CCC(=O)c1ccccc1OCC(=O)Nc1c(F)c(F)c(F)c(F)c1F	-8	.	102	96
c1nncn1N=C1CCCCC1	.	-1	103	107
COc1ccc(CCC(=O)Nc2nc3ccccc3[nH]2)cc1OC	1	13	104	104
CCn1c(CCc2ccccc2)nnc1SCC(N)=O	-8	2	100	104
N#Cc1c(N)n[nH]c1CCCNC(=O)c1oc2ccccc2c1CSc1ccc(Cl)cc1	-2	-22	100	98
Cc1c(C(C)(C)C)s/c(=N\S(=O)(=O)c2ccc(Cl)cc2)n1C	14	-13	103	105
COc1ccc(C(C(=O)NC2CCCC2)N(C(=O)c2ccn[nH]2)c2ccc(F)cc2)cc1OC (configuration not stated)	.	-21	100	108
CCC(=O)N1CCc2cc(Br)cc(S(=O)(=O)NCc3ccccc3OC)c21	-6	-27	103	104
COc1ccc(OCCn2c(NC(=O)c3ccccc3Cl)nc3ccccc32)cc1	3	-18	102	108
Nc1ccc(S(=O)(=O)Nc2ccccn2)cc1	-3&-2	2&5	100&98	100&100
COc1ccccc1C(=O)Nc1ccc(S(C)(=O)=O)cc1	5	-5	108	121
C=CCNC(=O)COc1cccc2c(=O)n(CC)ccc12	84	6	98	109
O=C1c2ccccc2C(Nc2ccccc2)N1c1cccnc1 (configuration not stated)	6	-5	103	107
COc1ccc(-c2cc(C(=O)N3CCC(C(N)=O)CC3)c3ccccc3n2)cc1	9	.	101	94
O=C(NN1CCN(c2ccccc2)CC1)c1cc(Cl)sc1Cl	6	-25	101	99
Cn1c(=O)oc2cc(S(=O)(=O)NC(Cc3ccccc3)C(=O)NCc3ccco3)ccc21 (configuration not stated)	-10	0	104	103
Cc1nc2nc[nH]n2c(=O)c1NS(C)(=O)=O	-6	-13	100	99
CCOC(=O)N1CC=C2C(C1)C(c1cccc(C(F)(F)F)c1)C(C#N)=C(N)C2(C#N)C#N (configuration not stated)	.	9	109	113
O=C1c2ccccc2S(=O)(=O)N1CCCCN1C(=O)c2ccccc2S1(=O)=O	-14	-11	100	100
Cc1ccc(-n2cnc3ccccc32)cc1	-6	.	101	106
c1ccn2c(c1)nc1c2nc2ccccn21	77	-18	101	103
Nn1c(Cc2ccccc2)n[nH]c1=S	99*	-64	99	97

(next part)
SMILES	Mtb MbtI inh	MenB inh	PV pol inh	PV pol inh intensity
CC(C)=N/N=C(\N)SCc1ccccc1	8	20	94	102
O=C(NCc1ccco1)c1ccc2c(=O)n(C3CCCCC3)c(SCc3cccc(F)c3)nc2c1	-3	5	100	100
Cc1cc(=O)[nH]c(SCc2cn3c(C)cc(C)nc3n2)n1	107	-1	105	104
CC(O)(CC#N)c1ccccc1 (configuration not stated)	6	-11	100	98
CCOC(=O)c1oc2ccccc2c1NC(=O)COC(=O)C12CCC(=O)N1c1ccccc1S2 (configuration not stated)	-19	-18	105	110
Cc1ccc2nc(COC(=O)Cn3[nH]c(=O)c4ccccc4c3=O)cc(=O)n2c1	18	-20	99	108
Cc1ccnc2nc(C(=O)Nc3ccccc3C(C)(C)C)nn12	-10	-14	107	102
Brc1ccc2c(c1)CNc1cccnc1O2	4	-11	101	103
O=C(Cn1cnc2ccccc2c1=O)NCCC(=O)N1CCN(Cc2ccccc2)CC1	6	10	100	101
Cc1ccc(C(=O)OCc2ccccc2)cc1NC(=O)c1ccco1	-12	-13	101	103
O=c1c2ccccc2n2c(=S)[nH]nc2n1Cc1ccccc1	38	-106	98	100
O=C1NC(=O)N(CCC2=CCCCC2)C(=O)/C1=C/c1cnc(-c2ccccc2)nc1	24	-13	100	101
O=C1CCc2cc(OCc3ccc(Cl)cc3)ccc2O1	-1	-4	103	108
CC(C)c1ccc(OCC(=O)N2CCCc3ccccc32)cc1	-7	-26	102	105
CCn1c(C)nc2cc(S(=O)(=O)N(C)C)ccc21	8	7	100	108
COc1ccc(N=Cc2cn(-c3ccccc3)nc2-c2ccccc2)cc1	0	-14	101	103
O=C(CCn1ccc2cc(S(=O)(=O)N3CCCCC3)ccc21)N1CCc2ccccc2C1	75	-7	100	102
